Hsc70 ATP site – Hsc70 inhibitors, probe displacement, primary screen, biochemical, fluorescence polarization (AID 568); 83,000 tested, under 10 active; Hsc70 fluorescence polarization, probe displacement; higher % means a stronger effect; strong numbers were not always called active; displacement, % at 20 µM; hits with a dose series show IC50 in µM;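 active = displacement above 50% without optical interference and an IC50 on retest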;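 also: ATPase domain with a fluorescein-tagged ATP probe; 0% = vehicle and 100% = excess ADP; read after one hour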
WNV NS2B-NS3 inh – WNV NS2B-NS3 proteinase inhibition; P06935; WNV NS2B-NS3 protease, fluorogenic substrate Ex360/Em465; hits give low values; z-score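 (tested at a level between 10 and 100 µM)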; actives 0.18% (n = 65,000);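 active = z-score at -3 or under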;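 also: score is relative to mean and spread of the compound wells of a plate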
Target sequence (P06935 1371-1501 limits assumed): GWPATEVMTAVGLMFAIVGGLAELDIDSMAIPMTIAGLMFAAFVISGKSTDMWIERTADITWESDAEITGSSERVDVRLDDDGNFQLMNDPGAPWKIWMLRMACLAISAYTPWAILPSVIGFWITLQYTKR
Target sequence (P06935 1502-1679 limits assumed): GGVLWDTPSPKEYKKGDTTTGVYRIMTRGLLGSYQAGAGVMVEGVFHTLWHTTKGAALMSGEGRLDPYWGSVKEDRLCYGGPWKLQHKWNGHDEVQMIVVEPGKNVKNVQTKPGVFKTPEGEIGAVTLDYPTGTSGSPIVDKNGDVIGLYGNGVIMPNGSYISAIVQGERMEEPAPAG
MT1-MMP promoter – MT1-MMP gene expression reporter suppression – cell-based, luciferase reporter, luminescence (AID 618); MT1-MMP promoter luciferase reporter cells, luminescence; calls from a first round at 10 µM; hits with a dose series show EC50 in µM; actives 0.62% (n = 87,000);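 active = over half of the reporter light lost at 10 µM or EC50 under 50 µM; inactive = the rest and hits that failed the dose series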;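 also: actives suppress MT1-MMP promoter-driven transcription so potencies describe inhibitors; HT1080 fibrosarcoma cells; overnight exposure; toxic or luciferase-blocking compounds were not removed from the actives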
Numbers without * were called inactive; i = inactive; x = not tested or not shown.

SMILES | Hsc70 ATP site | WNV NS2B-NS3 inh | MT1-MMP promoter
CSC1=NC2(CC(c3ccccc3)Oc3cc(O)ccc32)CC(C)(C)N1 (stereo not given) | -2.6% | x | i
CSCCC(NC(=O)CCN1C(=O)c2ccccc2C1=O)C(=O)O (stereo not given) | -0.7% | 0.63 | i
CC1(C)CC(=O)C2=C(C1)OC(N)=C(C#N)C21C(=O)N(Cc2ccccc2Cl)c2ccccc21 (stereo not given) | -38.5% | x | i
COc1cccc(C(=O)NC2(C(F)(F)F)N=C3SCCN3C2=O)c1 (stereo not given) | 1.5% | -4.77* | i
Cc1cc(C)nc(-n2nc(C)cc2NC(=O)c2cc3ccccc3oc2=O)n1 | 3.8% | -0.46 | i
CCCCn1c(SCC(=O)OCC)nc2c1c(=O)[nH]c(=O)n2C | -2.2% | -0.03 | i
CCC(=O)N/C(=N/c1nc(C)cc(C)n1)Nc1ccc(OC)cc1 | 3.3% | x | i
O=C(CSc1nnc2c(Cl)cc(C(F)(F)F)cn12)Nc1ccc2c(c1)OCO2 | -1.1% | -1.22 | i
Oc1cccc(Nc2ncnc3ccccc23)c1 | -3.8% | -0.85 | i
Cc1cc(=O)oc(C)c1C(=O)NCCc1ccc(F)cc1 | 1.3% | x | i
Cn1nnnc1Sc1ncnc2scc(-c3ccccc3)c12 | -9.6% | 1.43 | i
COc1ccccc1NC(=O)CSc1nnc(Cn2c(=O)sc3ccccc32)n1C | 0.0% | 1 | i
O=C(Cn1ccc2ccccc2c1=O)NCCC(=O)N1CCN(c2cccc(C(F)(F)F)c2)CC1 | 2.9% | 0.38 | i
CCNc1nc(NC(C)C)nc(OCCNS(=O)(=O)c2cc(C)ccc2C)n1 | 0.9% | 0.27 | i
CCCn1c(NC(=O)C2CCN(S(=O)(=O)c3cccs3)CC2)nc2ccccc21 | -2.7% | 1.31 | i
C=C1C2(C(=O)NCc3ccco3)CCC(C2)C1(C)C (stereo not given) | 0.9% | 1.84 | i
CCN(CC)S(=O)(=O)c1ccc2[nH]cc(C(=O)NCCCN3CCCCC3C)c(=O)c2c1 (stereo not given) | 6.3% | x | i
COc1ccc(NC(=O)NCc2cccnc2)cc1OC | -2.2% | -1.21 | i
COc1ccccc1OCc1nc(C#N)c(N2CCC(C(N)=O)CC2)o1 | -2.0% | 0.12 | i
COC(=O)c1ccc(Oc2cc(C)nc(NCc3ccccc3)n2)cc1 | -2.2% | -1.56 | i
O=C(O)C1CC=CCC1C(=O)NCc1cn2ccccc2n1 (stereo not given) | 3.9% | 0.83 | i
COCCCNC(=O)CC1Oc2ccccc2NC1=O (stereo not given) | 0.3% | 0.46 | i
NS(=O)(=O)c1cc(C(=O)N2CCc3ccccc32)c(Cl)cc1Cl | 0.8% | x | i
Cc1ccc(-n2c(=O)c3sccc3n(CC(=O)NCc3ccco3)c2=O)cc1 | 12.4% | 0.1 | i
O=C1CCCCCN1C(=O)c1ccc(C(=O)N2CCCCCC2=O)cc1 | 7.6% | -0.47 | i

A draw from above in order of count of non-hydrogen atoms, ascending:
SMILES | Hsc70 ATP site | WNV NS2B-NS3 inh | MT1-MMP promoter
C=C1C2(C(=O)NCc3ccco3)CCC(C2)C1(C)C (stereo not given) | 0.9% | 1.84 | i
CSCCC(NC(=O)CCN1C(=O)c2ccccc2C1=O)C(=O)O (stereo not given) | -0.7% | 0.63 | i
CSC1=NC2(CC(c3ccccc3)Oc3cc(O)ccc32)CC(C)(C)N1 (stereo not given) | -2.6% | x | i
CC1(C)CC(=O)C2=C(C1)OC(N)=C(C#N)C21C(=O)N(Cc2ccccc2Cl)c2ccccc21 (stereo not given) | -38.5% | x | i
O=C(Cn1ccc2ccccc2c1=O)NCCC(=O)N1CCN(c2cccc(C(F)(F)F)c2)CC1 | 2.9% | 0.38 | i

(more compounds)
SMILES | Hsc70 ATP site | WNV NS2B-NS3 inh | MT1-MMP promoter
CC(C)n1c(C(=O)OCC(=O)NCc2ccc3c(c2)OCO3)cc2sccc21 | 0.5% | 0.7 | i
CC(NC(=O)C1CCCN(S(=O)(=O)c2cccc3nonc23)C1)c1ccccc1 (stereo not given) | -11.1% | x | i
COc1ccc(S(=O)(=O)Nc2ccc3oc(C)c(C(=O)O)c3c2)cc1 | 2.3% | -1.09 | i
COc1cc(C(=O)O)ccc1OCC(=O)N1CCOCC1 | -2.4% | 1.72 | i
CN1CCN(Cc2nc3c(c(=O)n(C)c(=O)n3C)n2Cc2cccc3ccccc23)CC1 | -0.7% | 0.06 | i
COC(=O)c1ccc(OC)c(CSc2nnc(COc3ccccc3)o2)c1 | 6.3% | -0.55 | i
CCNC(=O)c1cc2c(=O)n3cccc(C)c3nc2n(CCc2ccccc2)c1=N | 3.1% | 2.15 | i
Cn1c(=O)c2c(nc(SCc3nn[nH]n3)n2Cc2ccccc2F)n(C)c1=O | 9.1% | -0.22 | i
CCOc1ncccc1C(=O)OCCN1C(=O)c2ccccc2C1=O | -0.1% | 0.08 | i
O=C(O)[C@H]1CCCC[C@H]1C(=O)Nc1ccc(Nc2ccccc2)cc1 | -5.5% | x | i
COc1ccc(Cc2noc(-c3ccc(OC)c(OC)c3)n2)cc1OC | -3.0% | 0.71 | i
CCN1CCc2nc(SCC(=O)Nc3ccc(OC)cc3)c(C#N)cc2C1 | -5.2% | -1.18 | i
COc1cccc2c(=O)n(CC(=O)Nc3cccc(F)c3)ccc12 | 13.1% | 0.66 | i
CCCCOc1ccc(OC(=O)c2cccnc2)cc1 | 0.9% | -0.41 | i
O=C(NCc1ccc(F)cc1)C(Cc1ccccc1)NS(=O)(=O)c1cccs1 (stereo not given) | 0.6% | x | i
CCOC(=O)Cn1c(=O)c2c(nc(N3CCCCC3)n2Cc2ccccc2)n(C)c1=O | -0.4% | -0.59 | i
CC(Cc1cccs1)NC(=O)Nc1ccc(F)cc1 (stereo not given) | -1.3% | x | i
COc1ccc2noc3c2c1C(=O)c1ccccc1-3 | 144.1% | -0.84 | i
COc1cccc(-n2c(SC3CCOC3=O)nc3ccccc3c2=O)c1 (stereo not given) | -2.6% | 0.08 | i
CC(=O)Nc1ccc(S(=O)(=O)NC(CC(=O)N(C)Cc2ccccc2)C(C)C)cc1 (stereo not given) | -3.7% | -0.86 | i
CCOC(=O)c1c(NC(=O)COC(=O)Cn2c(C(F)(F)F)nc3ccccc32)sc(C)c1C | 4.6% | x | i
COCC(=O)NCc1nc2ccccc2n1Cc1ccccc1F | 0.9% | 0.29 | i
NC(=O)c1ccc(NC(=O)CCCc2nc(-c3ccccc3Cl)no2)cc1 | -1.9% | -0.12 | i
CCCCNc1nc(N(C)c2ccccc2)nc(-n2ccnc2)n1 | -4.3% | -0.38 | i
CCCn1nc2ccccc2c1P(=N)(N1CCOCC1)N1CCOCC1 | -1.3% | 1.7 | i

Entries of single compounds from above:
Results for `O=C(O)[C@H]1CCCC[C@H]1C(=O)Nc1ccc(Nc2ccccc2)cc1` = Hsc70 ATP site = -5.5%; WNV NS2B-NS3 inh = x; MT1-MMP promoter = i
Results for `Cn1c(=O)c2c(nc(SCc3nn[nH]n3)n2Cc2ccccc2F)n(C)c1=O` = Hsc70 ATP site = 9.1%; WNV NS2B-NS3 inh = -0.22; MT1-MMP promoter = i
Results for `CCNC(=O)c1cc2c(=O)n3cccc(C)c3nc2n(CCc2ccccc2)c1=N` = Hsc70 ATP site = 3.1%; WNV NS2B-NS3 inh = 2.15; MT1-MMP promoter = i

The results go on.
SMILES | Hsc70 ATP site | WNV NS2B-NS3 inh | MT1-MMP promoter
COc1ccc(CNC(=S)Nc2cc(C)cc(C)c2)cc1 | -2.1% | x | i
N#Cc1c(-n2cccc2/C=N/O)sc2c1CCCC2 | -11.0% | -0.09 | i
COc1ccccc1NC(=O)CSc1nnc(Cc2cccn2C)n1-c1ccc(F)cc1 | 6.9% | -0.05 | i
CC12CCC(C(=O)N3CCc4ccccc43)(CC1=O)C2(C)C (stereo not given) | -0.1% | 1.49 | i
COc1ccc(N(Cc2cc3cc(OC)ccc3[nH]c2=O)C(=O)C2CCCO2)cc1 (stereo not given) | 4.4% | -1.76 | i
Cc1ccc(-c2nn(CC(=O)Nc3ccc4c(c3)nc3n4CCOC3)c(=O)c3ccccc23)cc1 | -0.7% | -0.15 | i
c1ccc2c(c1)[nH]c1nc3nncn3nc12 | 1.6% | 0.33 | i
Cc1cc(C(=O)CSc2nnc(Nc3ccccc3)s2)c(C)n1CC1CCCO1 (stereo not given) | 9.9% | 1.64 | i
Cc1ccc2nc(NC(=O)C3CCCN(S(=O)(=O)c4cccnc4)C3)sc2c1 (stereo not given) | 2.4% | -0.07 | i
COCCn1c(=S)[nH]c2cc(C(=O)N3CCN(c4ccc(F)cc4)CC3)ccc2c1=O | 6.3% | -0.83 | i
NC(=O)CSc1nnc2sc3ccccc3n12 | 0.0% | -0.45 | i
COc1cccc(OCC(=O)Nc2ccc(OC)c(OC)c2)c1 | -7.2% | -0.22 | i
CC(C)OC(=O)CSc1nc(-c2ccc(F)cc2)cc(C(F)(F)F)n1 | 2.3% | x | i
CN1C(=O)c2ccc(C(=O)NCc3ccccc3)cc2C1=O | -0.3% | -0.34 | i
CCC1C(=O)N=C(SCC(=O)Nc2ccc(C(=O)OC)cc2)NC1=O (stereo not given) | 2.8% | -0.17 | i
Oc1ccc(Cl)cc1-c1cc(-c2ccccc2Cl)[nH]n1 | -3.7% | x | i
Cc1ccc(NC(=O)N2CCc3ccccc3C2)cc1 | 6.5% | x | i
COc1ccc(CCNC(=O)C2CCC(CNc3c(N4CCCC4)c(=O)c3=O)CC2)cc1OC (stereo not given) | 0.1% | 1.15 | i
CC(=O)c1cccc(NC(=O)Nc2c(C)nn(C)c2C)c1 | 2.2% | -0.45 | i
c1coc(Cn2nnnc2CN2CCN(C3CCCC3)CC2)c1 | -7.8% | -0.15 | i
CC1=C(C#N)C(Nc2ccc(C)cn2)(C(F)(F)F)C(=O)N1 (stereo not given) | 2.1% | x | i
CCOC(=O)c1c(C)[nH]c(C(=O)OCC(=O)N(C)C2CCS(=O)(=O)C2)c1C (stereo not given) | -2.7% | x | i
CCOc1cccc(OCCCCn2ccnc2)c1 | 4.6% | 0.07 | i
O=C(O)CCNS(=O)(=O)c1ccc2ccccc2c1 | 6.0% | x | i
OC(c1ccccc1)c1nc2ccccc2s1 (stereo not given) | 3.4% | -1.17 | i
Next section.
SMILES | Hsc70 ATP site | WNV NS2B-NS3 inh | MT1-MMP promoter
COc1ccc(CC(=O)Nc2nnc(SCc3ccccc3)s2)cc1S(=O)(=O)N1CCOCC1 | 2.6% | x | i
COc1ccc(-n2ncc3c(=O)n(CC(=O)OCc4ccccc4)cnc32)cc1 | 4.9% | -0.55 | i
Cc1cc(C)n2nc(SCC(=O)Nc3c(C)nn(-c4ccccc4)c3C)nc2n1 | 4.3% | -0.38 | i
CCC1(C)CC(=O)N(c2ccc(C(=O)O)c(O)c2)C1=O (stereo not given) | 2.7% | 1.82 | i
COc1cccc(C2(O)CCN(C(=O)C3CCC3)CC2)c1 | 1.3% | -0.87 | i
Cc1cccc(OCC(=O)NCCN2CCOCC2)c1 | 4.1% | -2.07 | i
COc1ccc(C2C(C#N)=C(N)Oc3cc(O)ccc32)cc1OC (stereo not given) | -2.6% | 0.28 | i
COc1ccc(-n2nnc3c(SCC(=O)N4CCCc5ccccc54)ncnc32)cc1 | -6.4% | -0.34 | i
COc1ccc(NC(=O)COc2nsnc2N2CCCCC2)cc1 | 5.3% | -0.4 | i
CCOC(=O)c1nc2sc(C)c(C)c2c(=O)[nH]1 | -3.7% | 2.28 | i
CCCc1cc(C(=O)Nc2ccccc2SC)no1 | -0.8% | 0.25 | i
O=C1CN(C(=O)COC(=O)c2cccc(S(=O)(=O)NCc3ccccc3)c2)c2ccccc2N1 | 0.3% | x | i
CCOc1ccc(C2=[N+]([O-])C(C)(C)N(O)C2(C)C)cc1 | 2.2% | -0.27 | i
Cc1cc(=O)[nH]c(SCC(=O)c2ccc(C)c(C)c2)n1 | -0.5% | -0.47 | i
CCCCn1nnnc1NCc1cccc(OC)c1OC | -3.5% | 1.11 | i
CCN(CC)c1ccc(NC(=O)CN2CCN(c3ccccc3F)CC2)cc1 | -3.0% | 0.5 | i
Cc1[nH]c(=O)[nH]c(=O)c1S(=O)(=O)N1CCCC(C(=O)NCc2ccco2)C1 (stereo not given) | 1.0% | 0.61 | i
COc1ccc(NC(=O)CSc2nnc(-c3ccccc3)n2N)cc1 | 3.8% | -0.24 | i
CCn1ncc(C2=NOC(C(=O)NCc3ccc(OC)cc3)C2)c1C (stereo not given) | 0.2% | -1.06 | i
Cn1cccc1C(=O)N1CCN(c2cccc(C(F)(F)F)c2)CC1 | -0.2% | 0.67 | i
O=C(NCCN1CCOCC1)c1csc2c1CCCC2 | -7.2% | 0.4 | i
CCc1nn(C(C)C(=O)N2CCc3ccccc3C2)c(=O)c2cc3occc3n12 (stereo not given) | -4.0% | -0.7 | i
CC(=O)O[C@]1(C(C)=O)CC[C@H]2[C@@H]3C[C@H](C)C4=CC(=O)CC[C@]4(C)[C@H]3CC[C@@]21C | 3.0% | -0.11 | i
CCC(C(=O)Nc1ccccc1OC)n1c(C(=O)OC)cc2ccsc21 (stereo not given) | 5.0% | 0.54 | i
Nc1nc(SCC(=O)N2CCc3ccccc32)[nH]c(=O)c1-c1ccccc1 | -0.5% | 1.13 | i
CCn1c(SCC(=O)Nc2c(C)n(C)n(-c3ccccc3)c2=O)nnc1-c1cccc(C)c1 | 8.6% | -0.81 | i
Cc1cccc(Cn2c(=O)n(CCCC(=O)NCc3ccco3)c(=O)c3ccccc32)c1 | -6.3% | -0.00936 | i
Cc1ccc(NC(=O)c2oc3c(c2C)C(=O)CC(C)(C)C3)cc1 | -1.3% | -0.08 | i
CCCCSc1nn[nH]n1 | -5.7% | -1.16 | i

Source: PubChem (several laboratories)

Some of the compounds tested. The share of hits here may be higher or lower than overall.
